# Compound activity: PubChem, several laboratories
# HNF4A DNA FP: change in binding of human HNF4 alpha to DNA. P41235. HNF4a-FITC DNA binding, fluorescence polarization, 1 h. activity change, % at 10 µM. actives 0.3% (n = 360,000); in the data active = activity change above about 30%, passing the limit was not always enough;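 note: controls were the assay level and a saturating level of protein; the project sought stronger binding though the title names inhibitors; some compounds called inactive have numbers as strong as hits; positive values seem to mean higher polarization but the record does not say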
# Target sequence (P41235 whole entry, looked up): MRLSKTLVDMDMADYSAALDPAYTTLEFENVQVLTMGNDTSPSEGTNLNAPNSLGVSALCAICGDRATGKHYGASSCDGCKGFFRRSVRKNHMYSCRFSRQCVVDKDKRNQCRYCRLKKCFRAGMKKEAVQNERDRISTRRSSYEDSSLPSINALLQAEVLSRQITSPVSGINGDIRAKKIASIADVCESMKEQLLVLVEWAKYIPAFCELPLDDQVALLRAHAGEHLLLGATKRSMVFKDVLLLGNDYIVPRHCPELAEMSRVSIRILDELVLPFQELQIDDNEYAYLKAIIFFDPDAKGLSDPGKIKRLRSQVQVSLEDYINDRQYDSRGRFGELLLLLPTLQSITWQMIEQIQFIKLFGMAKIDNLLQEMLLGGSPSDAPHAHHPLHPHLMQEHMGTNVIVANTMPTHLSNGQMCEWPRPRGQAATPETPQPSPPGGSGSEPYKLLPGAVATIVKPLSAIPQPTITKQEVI
# FGF22 binding: shifts melting point of recombinant human FGF22; recombinant FGF22 thermal shift, SYPRO orange fluorescence; percent of sucrose octasulfate shift, DMSO zero; calls only at 9.99 µM; actives 1.5% (n = 340,000); AID 651658;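 active = melting point raised past a set limit in the mean and every replicate; inconclusive = no clear call; three in four hits are not shown here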
# Ecoli growth: E. coli growth inhibition. Escherichia coli growth, OD600, 23 h; hits give low values. OD600 absorbance (no concentration beside the values). actives 0.21% (n = 330,000). AID 1053175;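 active = OD600 absorbance below the run mean of sample wells minus 3.6 SD, in any replicate, cut at about 0.56 in these data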;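 note: stock transfer was 300 nL into about 60 µL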
# Ecoli rRNA inh: inhibits bacterial ribosomal RNA function over humanized ribosomes; E. coli WT GFP vs humanized-ribosome RFP mutants, fluorescence, 24 h; hits give low values; DMSO median 0, no signal -100; GFP signal change (wild-type ribosome), % (no concentration beside the values); actives 1.6% (n = 350,000); AID 720706;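 active = significant combined selectivity score with lowered wild-type GFP, culture density cut under 30%, mutant RFP and density less affected; inactive = any of these conditions unmet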; note: one replicate is shown; some compounds called inactive have numbers as strong as hits
# ALR inh: inhibitors of human sulfhydryl oxidase ALR | inhibition, % (test concentration not listed) | purified ALR, DTT oxidation, H2O2 HRP-luminol luminescence | P55789 | actives 3.8% (n = 290,000);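 active = mean and each replicate at 75% or more; inconclusive = only one of the two met; inactive = neither met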;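 note: stock transfer was 7.5 nL into about 7.5 µL; 0% = neutral wells and 100% = wells with inactivated enzyme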
# Target sequence (P55789 whole entry, looked up): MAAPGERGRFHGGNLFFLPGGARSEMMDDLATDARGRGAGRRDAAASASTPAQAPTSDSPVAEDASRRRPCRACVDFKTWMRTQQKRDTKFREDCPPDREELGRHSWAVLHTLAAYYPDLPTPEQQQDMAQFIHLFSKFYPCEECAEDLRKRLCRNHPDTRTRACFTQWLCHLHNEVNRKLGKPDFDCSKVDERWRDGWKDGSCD
# UCH37 inh: blocks the human deubiquitinase UCH37; inhibition, % (no concentration beside the values); purified proteasome/UCH37, Ub-AMC cleavage fluorescence; actives 0.33% (n = 330,000); AID 588478; Q9Y5K5;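 active = mean of two replicates above 20%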;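 note: 0% = compound-free wells with enzyme and 100% = wells lacking proteasome; stock transfer was 100 nL into about 20 µL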
# Target sequence (Q9Y5K5 whole entry, looked up): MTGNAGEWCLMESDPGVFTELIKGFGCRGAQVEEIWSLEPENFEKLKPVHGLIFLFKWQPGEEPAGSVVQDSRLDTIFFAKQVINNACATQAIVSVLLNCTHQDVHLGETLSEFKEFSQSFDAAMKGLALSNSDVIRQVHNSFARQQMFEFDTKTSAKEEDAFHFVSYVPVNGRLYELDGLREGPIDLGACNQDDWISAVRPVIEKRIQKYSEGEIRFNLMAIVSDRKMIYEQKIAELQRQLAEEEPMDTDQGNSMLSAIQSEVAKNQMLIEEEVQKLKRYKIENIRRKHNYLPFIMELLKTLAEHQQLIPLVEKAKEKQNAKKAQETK
#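 Schedule: 30 min plus 25 min, room temperature / Material: human UCH37 within purified proteasomes / Technique: AMC fluorescence intensity at 355/460 nm / Buffer or medium: pH 7.4 Tris-HCl (50 mM) with ovalbumin, ATP-MgCl2, DTT / Controls: wells without proteasome as full block, compound-free enzyme plus substrate as uninhibited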
# Beta2AR agonist: activates human beta-2 adrenergic receptor causing internalization. P07550. actives 0.43% (n = 340,000). response, % (test concentration not listed). Am2.2-beta2AR cells, FAP receptor internalization, flow cytometry; reference of the scale not given here;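 active = response above a set limit, near 3 SD of response in nonfluorescent compounds, cut at about 42% in these data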;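 note: stock transfer was 100 nL into about 11 µL; a reference agonist was the positive control; negative values mostly stem from fluorescent compounds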
# Ecoli rRNA inh OD600: also measured in Ecoli rRNA inh; calls as there; OD600 change, %; measured here: OD600 growth;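 optical density of the mix in the first replicate; 0 = DMSO median and -100 = no signal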
# Ecoli rRNA inh RFP: further read-out of Ecoli rRNA inh, marked with its call; RFP signal change, %; measured here: RFP humanized mutant strains;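 first replicate; 0 = DMSO median and -100 = no signal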
# The depositor's hits bear a star; i = inactive; ? = inconclusive; / = no result given.
SMILES,HNF4A DNA FP,FGF22 binding,Ecoli growth,Ecoli rRNA inh,Ecoli rRNA inh OD600,Ecoli rRNA inh RFP,ALR inh,UCH37 inh,Beta2AR agonist
O=C(Cn1nnc(-c2ccccc2-n2cnnn2)n1)NCc1ccccc1,-1.7,/,0.661,/,/,/,3.3,2.6,-8.3
Cn1c2ccccc2c(=O)c2c(=O)n(Cc3ccco3)c(-c3ccc(Cl)cc3Cl)nc21,/,/,0.681,/,/,/,-8.5,-0.7,/
Cc1noc(C)c1CSCC(=O)N1CCN(c2ccc(F)cc2)CC1,1.7,/,0.61,/,/,/,29.7,1.1,1.5
O=C(c1cccc(F)c1)N1CCN(c2ccc([N+](=O)[O-])c(N3CCOCC3)c2)CC1,-1.1,/,0.661,/,/,/,-18.9,9.3,3.1
COc1ccc(OC)c(NC(=O)CSc2nc(=O)n(CCN3CCOCC3)c3c2CCCC3)c1,4.3,i,0.707,3.6,1.2,-0.2,-12.9,4.4,-7.7
CC1CCN(C(=O)CSc2nncn2C)CC1,-1.8,/,0.699,12.1,17.4,-1.0,-5.6,5.3,8.4
CC(=O)C1CCC2C3CC=C4N(C)C(=O)CCC4(C)C3CCC12C (stereo not drawn),1.1,i,0.719,4.4,-20.1,-0.8,/,1.7,1.2
C=CCOc1c(CNc2cccc(C(=O)O)c2)cccc1OCC,1.0,/,0.747,/,/,/,19.0,-58.6,3.4
CCC(C)(C)n1nnnc1C(c1ccc(F)cc1)N1CCN(C(=O)c2ccco2)CC1 (stereo not drawn),1.4,i,0.661,3.7,-6.6,2.6,/,-0.1,11.6
Cc1ccc(C(=O)Oc2ccc(C(=O)COC(=O)c3cnccn3)cc2)cc1,1.2,/,0.722,/,/,/,7.0,0.9,1.6
Cc1sc2ncnc(N3CCC(C(=O)Nc4nc5ccc(Cl)cc5s4)CC3)c2c1C,-1.4,i,0.606,5.8,4.4,2.8,-1.1,-0.9,10.4
N#Cc1nc(-c2ccco2)oc1N1CCOCC1,-0.5,/,0.716,/,/,/,1.8,-85.3,-6.2
CCN(CC)S(=O)(=O)c1ccc(C)c(NC(=O)CSc2nc3ccc(C)cc3[nH]2)c1,-3.9,i,0.642,-18.5,-18.3,14.1,-4.1,-0.2,0.8
CCOCCCNC(=O)CS(=O)(=O)Cc1nc(-c2cccc(OC)c2)oc1C,1.5,/,0.684,/,/,/,98.0*,2.2,5.0
CCCCOC(=O)/C=C\C(=O)NC(N)=O,3.1,i,0.721,17.8,13.4,52.5,15.0,2.8,7.3
CCOc1ccc(N(CC(=O)Nc2ccc(C)c(C)c2)S(=O)(=O)c2c(C)[nH]c(=O)[nH]c2=O)cc1,-7.2,i,0.726,-9.8,-2.2,7.4,-7.3,0.4,0.3
S=C(NNc1ccnc2cc(Cl)ccc12)Nc1ccc(Cl)cc1Cl,-9.1,i,0.682,-40.9,-35.5,-3.3,0.4,10.4,-2.0
O=c1c2cc(Cl)ccc2[nH]c(=S)n1Cc1ccccn1,-0.1,/,0.654,/,/,/,1.5,4.5,-17.9
Cc1nc2ccc(Oc3ccccc3)cc2s1,-0.8,i,0.686,-3.8,-5.6,-11.3,-5.5,1.3,-5.2
COc1ccc(CCNC(=O)CSc2ccc(-c3ccco3)nn2)cc1OC,-1.9,i,0.674,9.5,6.1,1.8,-4.4,2.9,-1.4
O=C(NC1CCCCCC1)c1ccc([N+](=O)[O-])s1,0.7,i,0.659,-58.4,-68.7,-10.9,/,5.3,7.3
O=C(O)CCN1C(=O)c2ccc(NC(=O)CSc3ccc(Cl)cc3)cc2C1=O,-1.9,i,0.746,3.5,10.8,0.0,14.2,5.6,20.6
C=CCN1C(=O)c2ccc(C(=O)N(C)CC(=O)Nc3ccccc3Br)cc2C1=O,-4.1,i,0.677,6.2,7.8,3.9,0.2,-2.0,-1.5
Cc1nc(N)[nH]c(=O)c1CC(=O)OCCCl,3.8,i,0.702,6.7,3.9,-3.0,-3.6,3.2,-5.4

# Among those listed so far, 3 have an aryl methoxy group.
SMILES,HNF4A DNA FP,FGF22 binding,Ecoli growth,Ecoli rRNA inh,Ecoli rRNA inh OD600,Ecoli rRNA inh RFP,ALR inh,UCH37 inh,Beta2AR agonist
COc1ccc(OC)c(NC(=O)CSc2nc(=O)n(CCN3CCOCC3)c3c2CCCC3)c1,4.3,i,0.707,3.6,1.2,-0.2,-12.9,4.4,-7.7
CCOCCCNC(=O)CS(=O)(=O)Cc1nc(-c2cccc(OC)c2)oc1C,1.5,/,0.684,/,/,/,98.0*,2.2,5.0
COc1ccc(CCNC(=O)CSc2ccc(-c3ccco3)nn2)cc1OC,-1.9,i,0.674,9.5,6.1,1.8,-4.4,2.9,-1.4

# Back to the main list, repeating the 2 entries before the break.
SMILES,HNF4A DNA FP,FGF22 binding,Ecoli growth,Ecoli rRNA inh,Ecoli rRNA inh OD600,Ecoli rRNA inh RFP,ALR inh,UCH37 inh,Beta2AR agonist
C=CCN1C(=O)c2ccc(C(=O)N(C)CC(=O)Nc3ccccc3Br)cc2C1=O,-4.1,i,0.677,6.2,7.8,3.9,0.2,-2.0,-1.5
Cc1nc(N)[nH]c(=O)c1CC(=O)OCCCl,3.8,i,0.702,6.7,3.9,-3.0,-3.6,3.2,-5.4
COc1cc(C2C(C#N)=C(N)Oc3cc(C)oc(=O)c32)ccc1OC(=O)N1CCOCC1 (stereo not drawn),1.7,/,0.629,/,/,/,/,-1.8,-1.4
C=CCN1C(=O)S/C(=C/c2ccsc2)C1=O,1.0,/,0.666,/,/,/,-8.6,6.5,-6.5
CCOC(=O)N1CCN(C(=O)c2cc3c(ccc4ccccc43)oc2=O)CC1,-3.4,/,0.721,/,/,/,-12.5,-196.0,-13.2
Cc1cc(NC(=O)COC(=O)c2c(C)noc2C)ccc1Br,-3.5,i,0.678,-0.3,2.6,0.9,-5.2,-0.1,-4.2
N/C(=N\OC(=O)c1ccc(Cl)cc1)c1cccnc1,-1.2,/,0.674,/,/,/,-10.3,2.1,-6.4
COc1ccc(OC)c(NC(=O)Cn2cc(C(=O)c3ccco3)c3ccccc32)c1,-2.6,/,0.678,/,/,/,-4.4,4.0,-19.8
COc1cc(OC)nc(NC(=O)CSc2nc3ccccc3o2)n1,3.9,/,0.712,/,/,/,-11.6,1.6,10.2
Cc1cc(NC(=O)CCC(=O)N(CCC(C)C)C(C(=O)NC2CCCC2)c2cccnc2)no1 (stereo not drawn),-0.5,/,0.707,/,/,/,20.5,-2.0,-17.2
Cc1cccc(NC(=O)c2cc3ccccc3o2)c1,-7.6,/,0.684,/,/,/,/,1.8,7.5
Cc1ccc(CN(C(=O)c2ccco2)C2CCS(=O)(=O)C2)cc1 (stereo not drawn),2.1,i,0.746,5.2,3.7,-2.2,-11.9,-2.4,0.6
Cc1ncoc1C(=O)NC1CC(C)(C)Cc2c1cnn2-c1ccccc1 (stereo not drawn),1.3,i,0.704,4.4,1.8,-0.3,38.4,2.8,1.6
O=C(CNC(=O)Cc1ccccc1)NCc1cccs1,1.0,i,0.65,9.1,13.4,-2.5,2.4,2.9,-4.5
CCOc1ccccc1NC(=O)CSc1nc2c(c(=O)n(C)c(=O)n2C)n1C,1.8,i,0.707,-3.7,1.8,-1.9,2.0,1.9,1.3
Cc1coc2c1c(C)cc1oc(=O)c(Cc3ccccc3)c(C)c12,-4.9,/,0.742,/,/,/,-9.6,-54.9,-4.5
CCn1c(=S)[nH]c2cc(S(=O)(=O)N3CCCCC3)ccc21,-1.8,i,0.637,-6.3,2.5,-0.6,2.2,2.6,4.2
Cc1ccccc1NC(=O)COC(=O)CN1C(=O)NC(C)(C)C1=O,3.2,/,0.726,/,/,/,-6.4,4.9,-30.3
CCC(C)/C(C)=N/NC(=O)c1cn(-c2ccccc2)nc1-c1ccccc1 (stereo not drawn),2.1,/,/,/,/,/,-2.2,/,-27.4
O=C(O)C(Cc1ccccc1)NC(=O)C(Cc1ccccc1)NC(=O)C12CC3CC(CC(C3)C1)C2 (stereo not drawn),2.3,i,0.671,/,/,/,-0.4,1.0,-1.5
CCc1nnc(NC(=O)CSc2nnc(C)c(=O)n2N)s1,-3.0,i,0.691,9.8,4.6,-0.9,94.8*,5.6,4.8
Cc1ccc(S(=O)(=O)N2C[C@H]3C(=O)C[C@@H](c4ccccc4F)N(S(=O)(=O)c4ccc(C)cc4)[C@H]3C[C@H]2c2ccccc2F)cc1,1.9,i,/,14.2,24.5,3.0,/,/,/
O=S(=O)(c1ccc(-c2csc(-c3cccnc3)n2)cc1)N1CCCC1,-3.2,/,0.662,/,/,/,96.6*,0.9,-4.9
Cc1ccc(CNC(=O)N[C@@H](Cc2ccccc2)C(=O)O)cc1,1.2,i,0.64,17.6,26.2,2.7,-5.1,-1.0,0.7
COc1ccc(S(=O)(=O)N/N=C(/C)c2ccco2)cc1,2.4,i,/,7.1,3.7,3.2,69.7,/,-3.7
CCOC(=O)C(=CNc1cc(OC)ccc1-n1cccc1)C(=O)OCC,-0.6,i,0.655,5.1,9.7,27.5,0.0,5.2,-7.4
CC(C)(C)OC(=O)N1CC2(CCCCC2)CC1Cc1ccc(C(F)(F)F)cc1 (stereo not drawn),-0.4,i,/,17.1,15.4,2.1,/,/,/
Cc1ccc(NC(=S)N/N=C/c2c(Cl)cccc2Cl)c(C)c1,-2.5,i,/,/,/,/,/,/,25.9
O=C(NCCc1ccccc1)c1cccc2c(-c3cccnc3)coc12,-5.1,i,/,-50.6,-64.7,-12.7,/,/,/
CCC1(c2ccccc2)NC(=O)N(CC(=O)Nc2ccc(N3CCCC3)cc2C)C1=O (stereo not drawn),0.3,i,0.645,-5.3,-5.0,4.9,?,-0.2,-8.8
O=C(COC(=O)C1CC1)NCc1ccccc1Cl,0.0,/,0.759,/,/,/,-2.1,-0.8,16.7
O=c1cc(O)c2c(=O)n(C3CCCCC3)c3ccccc3c2o1,-2.4,/,0.66,/,/,/,16.3,-15.9,2.2
CN(CC(=O)Nc1c(F)cccc1F)Cc1cccs1,-3.3,i,0.651,7.2,6.4,1.0,-0.1,2.6,-0.6
O=C(Cc1ccccc1)c1c[nH]c(C(=O)NC2CCCC2)c1,2.1,i,0.65,11.9,-2.4,0.8,1.5,2.3,-13.3
O=C(NCC(=O)N1CCCCC1)c1ccc2ccccc2c1,0.7,i,0.668,0.7,-6.6,0.7,0.9,2.5,2.2
COC(=O)c1sc(S(=O)(=O)N2CCC(C(N)=O)CC2)c(C(=O)OC)c1C,1.9,/,0.752,/,/,/,-7.3,0.5,13.8
Cn1c(=O)[nH]c(=O)c2c1nc(N1CCCCCC1)n2CCSc1nc2ccccc2[nH]1,-2.0,/,0.725,/,/,/,3.5,-3.6,-12.9
COCCN(CC(=O)NC1CCCCC1)C(=O)CCCC(=O)Nc1ccccn1,-6.0,i,0.721,8.2,3.7,0.3,5.5,1.2,-1.1
COC(=O)CSC1=C(C#N)C(c2cccc(OC)c2)CC(=O)N1 (stereo not drawn),1.9,i,0.678,3.4,2.7,0.2,-5.0,3.8,2.0
CS(=O)(=O)N(CC(=O)N1CCOCC1)c1ccc(Cl)cc1,0.2,i,0.674,16.4,6.5,2.2,2.3,1.6,0.9
CCCCCN(C(=O)NC(=O)Nc1ccccc1C)S(=O)(=O)c1ccccc1,0.1,i,0.662,-4.5,-1.0,0.3,-5.8,5.7,-4.2
NS(=O)(=O)c1ccc(NCc2cc(Cl)ccc2OCc2ccccc2F)cc1,3.0,/,0.683,/,/,/,-3.4,4.3,6.7
COCCNC(=O)C1(C)CCCN(C(=O)c2cc(C)oc2C)C1 (stereo not drawn),0.2,i,/,12.3,7.5,-0.8,/,/,/
O=C(N=C1c2ccccc2CN1c1ccc(F)c(Cl)c1)c1cccnc1Cl,/,i,0.68,-12.1,-3.9,5.2,1.7,3.1,/

# A portion of the library (hit frequency here may not be typical).
